Sfp inh – qHTS Assay for Inhibitors of Bacillus subtilis Sfp phosphopantetheinyl transferase (PPTase); 4'-phosphopantetheinyl transferase ffp (Bacillus subtilis), Q9F4F7; Biochemical Sfp PPTase activity, qHTS; Potency, µM, without a hit: max response, negative = inhibition, most hits filed as inhibitors; 310,000 tested, 3.5% active; active means well fitted inhibition curve with a large enough effect; inconclusive means small, poorly fitted or top-dose-only effect, or another doubt; inactive means no such curve, though single readings can be large or run the other way;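 further: the enzyme is Sfp with the accession as filed and its product quenches rhodamine fluorescence; potency means the concentration at half of the fitted maximal effect; 0% = enzyme reaction without inhibitor and -100% = no enzyme wells; top concentration of the series not given in the record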
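Fluorescence-quenching assay: 15 nM Sfp-PPTase preincubated 15 min at room temperature with compound, then 5 uM rhodamine-CoA and 12.5 uM BHQ-2-labelled YbbR peptide added. Fluorescence (ex 525/em 598 nm) read at start and after 30 min; difference gives rate.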
TRPML1 ag – qHTS for Agonists of the Human Mucolipin Transient Receptor Potential 1 (TRPML1); Mucolipin-1 (Homo sapiens), Q9GZU1; TRPML1-expressing cells, Ca2+ dye fluorescence, FDSS; host cell line not named in the record; reference of the full effect not given here; activation, % (concentration not given with the values); 410,000 tested, 0.12% active; AID 624414, 2012; in the data active = activation above about 50%; inconclusive = about 30% to 50%; inactive = below about 30%; further: 0% is about no effect; the text of the record puts the active cut at 80%
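Kinetic FDSS Ca2+ read in Tet-induced TRPML1-DL cells (ABD Ca8 dye plus quencher, 45-90 min RT loading): baseline, then compound, then 110 s agonist window; EC80 agonist 54-4 at 4uM final added afterwards for a 110 s antagonist window.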
ClpP mod – qHTS Assay for Activators of ClpP; Potency, µM (doses to about 57.5 µM), without a hit: at the top dose activity change, negative = active; ATP-dependent Clp protease proteolytic subunit (Bacillus subtilis (strain 168)), P80244; purified B. subtilis ClpP, FRET peptide cleavage, 20 min; 340,000 tested, 1.9% active; active = well fitted falling curve with a large enough effect; inconclusive = small, poorly fitted or top-dose-only effect; inactive = no such curve, though single readings can be large or run the other way; further: potency means the concentration at half of the fitted maximal effect; the source files actives as falling curves though it sought activators and does not explain the sign; nearly all actives have a fitted effect of over 65% in size; many hits overshoot -100%
Target sequence (P80244 whole entry, looked up): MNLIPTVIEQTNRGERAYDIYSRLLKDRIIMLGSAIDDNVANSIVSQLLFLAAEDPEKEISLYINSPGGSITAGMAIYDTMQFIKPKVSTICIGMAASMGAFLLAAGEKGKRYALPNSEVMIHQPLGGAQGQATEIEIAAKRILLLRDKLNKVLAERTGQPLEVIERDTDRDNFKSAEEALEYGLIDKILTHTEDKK
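Buffer: 100 mM Tris/HCl pH8, 100 mM KCl, 0.05% low protease BSA, 2.5% glycerol, 0.01% Tween-20. ClpP 10 microg/mL final; 20 min RT; delta FRET normalized to ADEP and DMSO controls.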
Menin MLL FP FL – qHTS Assay for Inhibitors Targeting the Menin-MLL Interaction in MLL Related Leukemias: Competition With Fluorescein Labeled MLL-derived Peptide; FP activity change, % at 61.4 µM; Fluorescence polarization, fluorescein-MLL peptide displacement from menin; AID 1766, 2009; 290,000 tested, under 10 active; inconclusive = falling polarisation curve, or a change in total fluorescence; inactive = total fluorescence flat and polarisation flat or rising; no compound was filed as active; the % refers to the polarisation; negative = inhibition;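 further: % of control where 0% means no effect; inhibitors lower the polarisation; unlabelled MLL peptide was the positive control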
TRPML1 inh – qHTS for Inhibitors of the Human Mucolipin Transient Receptor Potential 1 (TRPML1). Mucolipin-1 (Homo sapiens), Q9GZU1. TRPML1-inducible cells, Ca2+ dye fluorescence, FDSS; hits give low values; inhibition of EC80 agonist-evoked calcium signal. activity change, negative = inhibition, % (no concentration beside the values). 390,000 tested, 0.02% active. AID 624415, 2012; in the data active means activity change below about -50%; inconclusive means about -30% to -50%; inactive means above about -30%;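 further: stimulus is agonist 54-4 at its EC80 concentration; on the % scale 0 is the no-effect control and ±100 the full control effect; compound concentration not given in the record; the text of the record puts the active cut at -80%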
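Calcium fluorescence in TRPML1-DL cells induced overnight with Tet: a 110 s read after compound pin addition, then a 110 s antagonist read after challenge with 54-4 at 4 uM final (EC80).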
TRPV1 potentiator – HTS Assay for Compounds that Act as Potentiators of the Vanilloid Receptor 1 | Transient receptor potential cation channel subfamily V member 1 (Homo sapiens), Q8NER1 | TRPV1-expressing cells, Fluo-8 calcium influx, capsaicin EC20 potentiation; host cell line not named in the record; control for the full effect not named in the record | potentiation, % at 8.33 µM | 320,000 tested, 0.02% active; active means potentiation above 80%; inconclusive means 30% to 80%; inactive means below 30%; further: 0% is about no effect
Target sequence (Q8NER1 whole entry, looked up): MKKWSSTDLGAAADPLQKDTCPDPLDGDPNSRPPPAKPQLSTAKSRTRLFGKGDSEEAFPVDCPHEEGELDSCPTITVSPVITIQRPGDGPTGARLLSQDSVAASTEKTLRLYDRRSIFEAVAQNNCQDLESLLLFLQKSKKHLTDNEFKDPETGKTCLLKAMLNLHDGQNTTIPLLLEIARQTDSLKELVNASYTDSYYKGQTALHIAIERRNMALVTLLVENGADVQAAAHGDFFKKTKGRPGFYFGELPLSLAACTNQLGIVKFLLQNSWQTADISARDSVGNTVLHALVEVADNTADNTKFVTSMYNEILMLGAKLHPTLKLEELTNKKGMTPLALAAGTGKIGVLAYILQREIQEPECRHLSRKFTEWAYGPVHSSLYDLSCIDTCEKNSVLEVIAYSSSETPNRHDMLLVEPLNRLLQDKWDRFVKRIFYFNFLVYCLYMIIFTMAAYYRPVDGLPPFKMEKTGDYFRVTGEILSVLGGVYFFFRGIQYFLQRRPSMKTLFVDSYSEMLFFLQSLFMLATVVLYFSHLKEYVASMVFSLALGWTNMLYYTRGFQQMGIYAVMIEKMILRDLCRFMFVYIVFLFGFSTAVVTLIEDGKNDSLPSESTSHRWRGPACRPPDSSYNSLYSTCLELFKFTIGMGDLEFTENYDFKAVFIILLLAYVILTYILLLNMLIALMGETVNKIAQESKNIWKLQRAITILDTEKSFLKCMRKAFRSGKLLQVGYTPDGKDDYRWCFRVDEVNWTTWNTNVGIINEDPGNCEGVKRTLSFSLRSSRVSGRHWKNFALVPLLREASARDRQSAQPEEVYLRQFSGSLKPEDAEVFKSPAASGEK
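Fluo-8 calcium influx in TRPV1-expressing cells, kinetic read (ex 480/em 520 nm). Compound added and read 3 min for agonist activity, followed by capsaicin at EC20 final and 2 min further read for enhancement.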
PINK1 modulator – A Quantitative High throughput Screen to Identify Chemical Modulators of PINK1 Expression. 410,000 tested, 0.2% active. PINK1 immunofluorescence, high-content cytometry, 24 h. Potency, µM (titrated, usually from 76.6 µM), for the others: at the top dose activation (PINK1 increase), hits mostly activators; active = well fitted activation curve with a large enough effect; inconclusive = small, poorly fitted or top-dose-only effect; inactive = flat fitted curve, though single readings scatter; cell line not stated here;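 further: potency means the concentration at half of the fitted maximal effect; % of control where 0% means no effect; nearly all actives have a fitted effect of over 65% in size; a mitochondrial uncoupler was the plate control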
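Stable cell line treated 24 h with compounds at 5 concentrations (CCCP controls), then fixed and immunostained for PINK1 plus nuclear and cell stains; PINK1 immunofluorescence quantified by laser-scanning microplate cytometry.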
An asterisk follows results filed as active; ? = inconclusive; . = no result given; & = joins results of further samples; [ ] = dose if it differs, or a comment.

Molecule	ClpP mod	TRPML1 ag	Sfp inh	TRPV1 potentiator	TRPML1 inh	PINK1 modulator	Menin MLL FP FL
COc1ccc2oc(=O)c(C(=O)N3CCCC3)cc2c1	.	1.1	17%	2	15	1.1%	-0.5
CCOC(=O)C1=C(C2=CCCCC2)c2ccc(OC)cc2N(S(=O)(=O)C(F)(F)F)C1C(=O)OCC (stereo not given)	-6.5%	-1.0	.	.	-8	1.6%	.
O=C(c1cc(C(=O)NCCc2ccccc2)c(=O)n(CCc2ccccc2)c1)c1cc(Cl)ccc1O	12%	1.9	13%	-3	-6	?	4.8
Cc1cc(C)c(C(=O)C(C)OC(=O)c2ccc(Cl)nc2)cc1C (stereo not given)	-2.1%	1.9	-17%	3	-6	1.5%	.
Cc1c(Br)c(C(=O)N2CCc3ccccc32)nn1C	1.3%	1.1	-16%	-24	2	3.2%	.
CC(=O)Nc1ccc(-c2csc(NC(=O)c3ccc(C)o3)n2)cc1	-2.5%	-1.4	-3%	3	11	2.0%	0.3
COc1cccc(C(O)c2nc(-c3ccc(C)c(C)c3)cs2)c1 (stereo not given)	-3.0%	0.8	.	.	-6	2.7%	.
Cc1[nH]c2ccccc2c1C(=O)C(=O)NC1CC(=O)N(c2ccc(F)cc2)C1 (stereo not given)	-0.8%	0.2	.	6	0	0.5%	.
COc1ccc(CC(=O)OCC(=O)N2CCN(S(=O)(=O)c3ccc(C)cc3C)CC2)cc1	-2.3%	1.2	.	-7	-6	0.4%	.
O=S(=O)(c1ccc(Cl)s1)N1CCCc2cccc(O)c21	-0.3%	1.0	-5%	-8	3	4.6%	2.4
COCCCNC(=O)c1cc2cc(S(=O)(=O)N3CCCCC3)ccc2n1C	-15%	0.2	.	.	-8	1.1%	.
C[C@H](NC(=O)c1nc[nH]c1C(=O)NCC(=O)OCc1ccccc1)C(=O)OC(C)(C)C	2.6%	0.2	4%	-13	4	-0.6%	-1.0
Cc1nc2ccccc2nc1OCC(=O)Nc1cc(C(F)(F)F)ccc1N1CCOCC1	-11%	0.3	-5%	-21	46	1.2%	13
COc1ccc(OCC(=O)O/N=C(\N)Cc2ccc(Cl)cc2)cc1	-3.3%	4.1	-12%	-7	39	-2.3%	-1.6
Cn1c(=O)oc2cc(S(=O)(=O)NCCN3CCCCCC3)ccc21	-1.5%	-0.8	5%	-6	5	-1.9%	-1.6
O=C1COc2ccc(S(=O)(=O)N3CCCC3)cc2N1	.	-0.2	7%	24	-4	-0.2%	-2.9
CCOc1cc(Br)cc(/C=C2\SC(=Nc3ccccc3)NC2=O)c1O	-0.4%	.	-26%	14	.	-0.3%	?
Cc1c(CN(C)C(=O)C2CCC(=O)N(Cc3ccccc3F)C2)[nH]c2ccccc12 (stereo not given)	-7.7%	-1.3	.	.	15	1.1%	.
O=C(CN(CC1CCCO1)C(=O)CNS(=O)(=O)c1ccccc1)NCc1ccc(F)cc1 (stereo not given)	.	-1.1	0%	0	-14	0.5%	-0.5
COCCNC(=O)NC(=O)COC(=O)c1cc([N+](=O)[O-])ccc1Sc1nc(C)cs1	0.2%	2.1	14%	5	1	-0.2%	-0.5
Cc1ccc(S(=O)(=O)NCc2ccccc2)cc1C(=O)N1CCCCCCC1	-1.1%	-0.7	.	-5	-10	-0.9%	.
CC1(C)CC(=O)C(N=Nc2cccc(S(=O)(=O)N3CCOCC3)c2)=C(O)C1	-2.7%	0.7	-24%	-36	-6	-0.9%	-2.0
c1ccc(CCCCc2ccccn2)cc1	.	0.4	.	.	32	11%	.
Cc1nn(-c2ccccc2)c(Cl)c1/C=C1\C(=O)N(C)C(=S)N1C	-0.5%	0.9	-14%	-13	73	1.7%	12
CNC(=O)C1Cc2ccccc2CN1S(=O)(=O)c1cccs1 (stereo not given)	-2.6%	0.1	6%	-4	3	0.2%	6.7
COc1ccc(S(=O)(=O)N2CCC(C(=O)NC3CCCCC3C)CC2)cc1 (stereo not given)	.	-0.2	-7%	-28	-11	-0.1%	-2.5
COc1ccccc1OCc1ccc(C(=O)N(C)C)o1	0.2%	-1.1	7%	-6	-2	1.9%	-0.9
Cc1ccc(O)c(NC(=O)c2nc3nc(C)cc(C(F)F)n3n2)c1	0.7%	-1.5	.	.	-11	1.9%	.
CCOC(=O)c1cc(-c2ccccc2)n(CCC(=O)NCc2ccccc2Cl)c1C	-16%	1.7	.	.	41	5.0%	.
Cc1ccc(CN(CC2CCCO2)C(=O)CN2C(=O)C(C(C)C)Oc3ccccc32)o1 (stereo not given)	0.5%	1.1	45µM*	-7	14	6.2%[38.3 µM]	3.4
CC1(C)CN(c2ccc(CC#N)cc2)C1=O	.	-0.6	-2%	24	8	-0.6%	1.5
COC(=O)c1c(NC(=O)c2ccco2)sc2c1C(C(=O)OC)CC2 (stereo not given)	0.3%	-0.6	2%	-1	2	-1.0%	-2.5
CCn1c(CN2CCCCC2)nc2cc(NC(=O)COc3ccc(C(C)(C)C)cc3)ccc21	1.7%	1.1	.	.	75	0.1%	.
Cn1cc(C(=O)Nc2ccc(C#N)cc2)c2ccccc2c1=O	?	-0.2&-0.4	5%	2	7&14	-2.0%&-1.1%	-7.7
COCCCNc1nc(N)c([N+](=O)[O-])c(Nc2ccccc2OC)n1	.	0.7	8%	11	8	-0.4%	-1.0
C[C@H](CO)N1C[C@H](C)[C@@H](CN(C)S(C)(=O)=O)Oc2c(NC(=O)Nc3ccc4c(c3)OCO4)cccc2C1=O	?	-0.2	.	.	-16	0.4%	.
COCCN(C(=O)COC(=O)c1ccc(-c2ccccc2)cc1)c1c(N)n(Cc2ccccc2)c(=O)[nH]c1=O	2.1%	1.3	.	.	18	7.1%	.
COc1ccc(Cc2nc3ccc(C(=O)NCCc4ccccc4)cc3o2)cc1	-14%	1.8	.	.	-14	-0.4%	.
O=C(Cn1c(=O)sc2ccccc21)Nc1ccc(S(=O)(=O)N2CCCCC2)cc1	1.6%	0.1	-6%	-11	-5	0.2%	-0.1
O=C(c1ccc(C(F)(F)F)cc1)C1CCCN(C(=O)CCc2cnccn2)C1 (stereo not given)	.	0.0	5%	-20	-5	-0.8%	-1.0
CCN1C(=O)[C@@H]2[C@@H]3CN(S(=O)(=O)c4ccc(C)cc4)[C@@H](c4cccc5ccccc45)[C@@H]3C(=O)C[C@@H]2C1=O	1.4%	0.1	.	.	.	5.0%	.
Cc1nc(-c2ccc(S(=O)(=O)N(Cc3ccccc3)C(C)C)cc2)co1	-1.0%	2.3	.	.	7	-5.9%	.
CCCn1c(N)c(N(CCOC)C(=O)c2cccc(S(=O)(=O)N3CCCc4ccccc43)c2)c(=O)[nH]c1=O	32µM*	-0.1	.	2	6	-1.2%	.
CC#CC[N+](C)(C)CCCCCCCCCCCC	2.7%	4.7	?	-15	7	-1.4%	0.7
CC(=O)Nc1n[nH]c(S(=O)(=O)Cc2ccc(Cl)cc2Cl)n1	0.9%	0.5	0%	-4	17	-0.3%	3.0
CC(=O)N1CCc2cc(CNS(=O)(=O)c3ccc(Br)s3)ccc21	2.0%	0.9	.	.	4	-0.5%	.
CCc1nnc(NC(=O)CN2CCN(Cc3cccc(Cl)c3)CC2)s1	-9.1%	0.7	-5%	4	15	-0.5%	0.2
Cc1cc(C)cc(NC(=O)NC(C)C2CCCO2)c1 (stereo not given)	.	-0.5	-8%	5	8	1.3%	2.1
O=C(O)c1ccc(OS(=O)(=O)c2ccc(Cl)s2)c(Cl)c1	0.8%	-0.9	.	-3	35	1.9%	.
c1ccc(CNc2cccnc2)cc1	-14%	-0.5	.	.	-18	1.5%	.

(cont.)
Molecule	ClpP mod	TRPML1 ag	Sfp inh	TRPV1 potentiator	TRPML1 inh	PINK1 modulator	Menin MLL FP FL
S=C(NCc1ccccc1)NCc1cccc(CNC(=S)NCc2ccccc2)c1	-1.9%	5.9	36%[activator]	3	-18	-0.9%	1.4
Cc1ccc(S(=O)(=O)CC(O)COc2ccc(C#N)cc2)cc1 (stereo not given)	-14%	-0.7	6%	-1	29	1.5%	0.8
CC1(C)C2CCC1(CS(=O)(=O)NCc1ccc(C(F)(F)F)cc1)C(=O)C2 (stereo not given)	.	-0.3	-7%	-19	-4	2.3%	1.7
CN(C(=O)COC(=O)c1cccnc1Nc1cccc(C(F)(F)F)c1)C1CCS(=O)(=O)C1 (stereo not given)	-1.7%	-0.4	-1%	-2	-16	4.4%	2.4
CCc1nc(C)c(-c2ccccc2)c(=O)[nH]1	0.3%	0.5	4%	?	-11	-4.5%[38.3 µM]	5.7
COc1ccc(C(=O)NCCc2ccccn2)cc1S(=O)(=O)Nc1ccc(Br)cc1	-3.7%	0.5	.	22	1	-1.1%	.
O=C(NCCO)C(=O)Nc1c2c(nn1-c1ccc(F)cc1)CSC2	1.0%	1.2	.	.	-13	2.9%	.
CNS(=O)(=O)c1cccc(C(=O)OCC(=O)Nc2sc3c(c2C#N)CCCCC3)c1	.	3.8	-4%	-5	25	1.3%	1.6
Cn1c(=O)cc(OCCCC(=O)Nc2ccc(F)cc2)c2ccccc21	-5.6%	-0.4	.	.	11	4.9%	.
O=C1CN(C(=O)Nc2ccccc2C(F)(F)F)C(c2ccccc2)c2c(sc3c2CCCC3)N1 (stereo not given)	-0.6%	1.5	.	.	32	-1.9%	.
Cc1cc(Oc2ccc(C#N)cc2)nc(NCc2ccccc2)n1	-1.0%	-0.6	9%	4	11	0.5%	8.4
CC(=O)Nc1ccc(S(=O)(=O)NC2CC(=O)N(c3ccc(C)cc3)C2)cc1 (stereo not given)	.	0.8	.	4	15	4.8%	.

High-throughput results deposited in PubChem BioAssay by National Center for Advancing Translational Sciences (NCATS).
